# CapD inh: blocks the Bacillus anthracis CapD enzyme; z-score (test concentration not listed); actives 0.23% (n = 140,000); AID 492967; purified CapD enzyme, fluorescence intensity read-out; hits give low values; some hits fall short of the stated cut;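 active means z-score under -4 in either of two replicates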;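 further: stock transfer was 100 nL into about 40 µL; score is relative to mean and spread of the plate; one replicate is shown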
# AID504770: E. coli YBA685 growth inhibition, screen for V. cholerae RctB inhibitors; E. coli YBA685 rctB-dependent plasmid, OD600 growth, 3 h; hits give low values; z-score (no concentration beside the values); actives 0.27% (n = 130,000);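 active means z-score under -2 on both plates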;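 further: wells of about 30 µL received 100 nL stock; score is relative to mean and SD of the test wells; the first replicate is given; strong numbers were not always called active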
# Numbers without * were called inactive; / = not tested or not shown.
mol	CapD inh	AID504770
O=c1[nH]c(-c2ccccc2)cs1	0.6	0.25
CCCc1nc(SCC(=O)c2ccc(Cl)cc2)nc(OC(=O)N(CC)CC)c1C	0.53	1.5
Cc1ccccc1OCC(=O)Nc1cc(Sc2ccccn2)cc(S(=O)(=O)c2ccccc2)c1	3.2	0.4
CCN(C(=O)Cc1noc2ccccc12)c1ccccc1	-0.71	-0.8
Clc1ccccc1-c1nnc2n1CCCCC2	-0.66	/
COc1ccc(CONC(=Nc2ccc(C)cc2)c2nonc2N)cc1	-0.62	/
COc1ccc(O)c(/C=N/N=C/c2cc(OC)ccc2O)c1	/	0.3
CCSc1nc2c(c(=O)[nH]c(=O)n2C)n1CC	/	-0.45
CCN(CC)c1nc(C)nc2sc(C(=O)Nc3ccccc3C(=O)OC)c(C)c12	0.9	/
Cn1nc(C(F)(F)F)c2cc(CSc3c(Cl)cccc3Cl)sc21	-0.12	/
Cc1ccc(-c2nc(C#N)c(NCCCN3CCOCC3)o2)cc1	8.8	-0.5
Nc1cc(=O)nc(SCCC(=O)O)n1-c1ccccc1	/	-0.4
CCCN1C(=O)c2ccccc2NC1c1ccc(OC)c(OC)c1 (stereo unspecified)	10	-1
Cc1nnc2ccc(-c3ccc(NC(=O)c4ccc5c(c4)OCO5)cc3)nn12	/	0.55
COc1ccccc1N1CCN(S(=O)(=O)c2cccc3nsnc23)CC1	/	-0.35
Cc1ccc(S(=O)(=O)Nc2cccc(C(=O)NCCC(C)C)c2)cc1	-0.28	-0.8
Nc1ccc(C(=O)O)cc1	0.19	0.15
O=C(c1ccc(F)cc1)c1ccc(N2CCCC2)cc1	-0.14	-0.25
N#Cc1cc2c(nc1SCC(=O)O)CCC2	6.3	-2.4*
COc1ccc(CN2C(=O)C3C4C=CC(C4)C3C2=O)cc1 (stereo unspecified)	-0.51	-0.5
Cc1cn(C(=O)Nc2ccccc2)nc1-c1cccs1	-0.79	-0.85
S=c1[nH]cc2ccccn12	/	0.85
CC1CN(C(=O)COC(=O)c2c(F)cccc2F)CC(C)O1 (stereo unspecified)	/	-0.8
O=C1CC(c2ccccc2)CC(O)=C1C=NCc1ccncc1 (stereo unspecified)	-0.76	0.3
COc1ccc(S(=O)(=O)Nc2ccc3c(c2)N(S(=O)(=O)c2ccc(Cl)cc2)CC3)cc1	-0.83	/

# Grouped by structure: the entries above with a carbonyl joined to an NH by a bond outside any ring
mol	CapD inh	AID504770
Cc1ccccc1OCC(=O)Nc1cc(Sc2ccccn2)cc(S(=O)(=O)c2ccccc2)c1	3.2	0.4
CCN(CC)c1nc(C)nc2sc(C(=O)Nc3ccccc3C(=O)OC)c(C)c12	0.9	/
Cc1nnc2ccc(-c3ccc(NC(=O)c4ccc5c(c4)OCO5)cc3)nn12	/	0.55
Cc1ccc(S(=O)(=O)Nc2cccc(C(=O)NCCC(C)C)c2)cc1	-0.28	-0.8
Cc1cn(C(=O)Nc2ccccc2)nc1-c1cccs1	-0.79	-0.85

# The main list resumes; the 3 compounds before the break are reprinted first.
mol	CapD inh	AID504770
CC1CN(C(=O)COC(=O)c2c(F)cccc2F)CC(C)O1 (stereo unspecified)	/	-0.8
O=C1CC(c2ccccc2)CC(O)=C1C=NCc1ccncc1 (stereo unspecified)	-0.76	0.3
COc1ccc(S(=O)(=O)Nc2ccc3c(c2)N(S(=O)(=O)c2ccc(Cl)cc2)CC3)cc1	-0.83	/
Cc1ccc(C(=O)[C@@H]2[C@@H](c3cccc(I)c3)C(C#N)(C#N)[C@H]3C=Cc4ccccc4N23)cc1	0.61	/
COc1ccc(-c2c(-c3ccc(OC)cc3)n(Cc3ccc(F)cc3)c3nc[nH]c(=O)c23)cc1	-1.7	0.2
O=C(CCSc1nnnn1-c1ccccc1)c1ccc(F)cc1	/	0.8
Cc1cc(=O)oc2c3c(ccc12)OC(=O)/C3=C\c1ccccc1	0.33	-0.2
O=C(O)CCC(=O)N1CCN(C(c2ccccc2)c2ccccc2)CC1	1.2	0.35
O=C(c1ccc2c(c1)ncn2-c1ccc(OCc2ccccc2)cc1)N1CCOCC1	-0.7	/
Cc1nc2ccc(CCO)cc2s1	-0.18	-0.7
O=S1(=O)CC2SC(=S)N(Cc3ccccc3)C2C1 (stereo unspecified)	-0.095	-0.65
CCN(CC)S(=O)(=O)c1ccc(C(=O)Nc2c3c(nn2-c2ccc(C)cc2)CS(=O)(=O)C3)cc1	-0.47	/
CNC(Cc1c[nH]c2ccccc12)C(=O)O (stereo unspecified)	/	-0.45
COc1ccc(C(=O)OCC(=O)N(C)Cc2ccccc2)cc1	-1.5	1.8
Cc1cc(/C=C(\C#N)C(=O)O)c(C)n1CC1CCCO1 (stereo unspecified)	/	-1.4
Cc1cc(N=CNc2ccc(Br)c(C)c2)ccc1Br	-0.46	0.1
O=C(Cn1c(Cc2ccccc2)nc2sc3c(c2c1=O)CCCC3)Nc1cccc(C(F)(F)F)c1	-0.55	/
Clc1ccc(N/N=C/c2ccc(OCc3ccccc3)cc2)c(Cl)c1	0.29	/
Cc1cccc(NS(=O)(=O)c2ccccc2)n1	/	-0.25
O=C(COc1ccccc1)Nc1ccccc1-c1nc2ccccc2o1	0.66	-1.1
O=C(NCc1ccc(F)cc1)c1cc2c(=O)[nH]c3ccccc3c2s1	0.025	-1.2
CCOc1ccc(C=Nc2ccc3c(c2)ncn3C)cc1	/	-1.1
O=C1Cn2c(nc3ccccc3c2=O)CN1Cc1ccc(Cl)cc1Cl	/	0.55
Cc1cc(C)c2c(CC(=O)N3CCCC3)coc2c1	1.1	0.75
CC(=O)N1N=C(c2c(-c3ccccc3)c3cc(Cl)ccc3[nH]c2=O)CC1c1cccc(Br)c1 (stereo unspecified)	0.55	/
c1ccc(Sc2ncnc3c2oc2ccccc23)nc1	-0.085	-1
Cc1ccc(-c2c(C#N)c(SCC(=O)c3ccc(F)cc3)nc3c2CCCC3)o1	/	1.5
CCCCN(CC)c1nc(C(=O)OCC)nc2ccccc12	-1	-0.3
Cn1ncc2c(NNC(=O)C3CCCCC3)ncnc21	-0.3	-1.5
CC(C)(C)C(=O)n1cc(-c2ccncn2)c(-c2ccncc2)n1	-0.37	/
Cc1c(C)c(C)c(CSC2CC(=O)N(c3ccccc3)C2=O)c(C)c1C (stereo unspecified)	0.66	0.15
Cc1ccc(C2CC(C(F)(F)F)n3ncc(C(=O)N4CCN(C(c5ccccc5)c5ccccc5)CC4)c3N2)cc1 (stereo unspecified)	-0.23	/
C=CCNC(=O)C1C(=O)NC2(C)CC1c1ccccc1O2 (stereo unspecified)	-0.34	0.9
CCc1nnc(NC(=O)C2CC2)s1	-0.025	-0.75
CC(C)N1CC(C(=O)O)CC1=O (stereo unspecified)	0.51	-0.5
CCn1nnnc1SCC(N)=O	/	1.6
Cc1ccc(Cn2c(O)c(N=Nc3ccc([N+](=O)[O-])cc3)c3ccccc32)cc1	0.34	/
FC(F)(F)c1cccc(CN2CCC(c3nnc(-c4ccccc4)o3)CC2)c1	-0.06	/
O=C(Nc1nc(-c2cc3ccccc3oc2=O)cs1)c1ccc(S(=O)(=O)N2CCc3ccccc32)cc1	-0.17	/
COc1ccc(NC(=O)c2ccc(-c3ccccc3F)cc2)cc1	-0.3	/
Cc1cc(C)n(CC(=O)NCc2ccccc2)c(=O)c1C#N	/	-0.95
CC1(C)N=c2ccc([N+](=O)[O-])cc2=N1	-2	/
COc1ccccc1C(=O)NCc1cccnc1	0.23	/
Cc1ccc(C)n1-c1ncn[nH]1	/	0.3
CCOCCOC(=O)C1=C(C)NC2=C(C(=O)CC(c3cccs3)C2)C1c1ccc(OC(C)=O)cc1 (stereo unspecified)	23	/
COc1ccccc1CC(=O)Nc1cccc(C)n1	/	0.25
Cc1cc(-c2ccccc2)n(-c2cc(Cl)ncn2)n1	-0.02	-0.8
Cc1ccc2c(c1)c1c3c(nccn32)CCC1	-1.3	0.05
O=C1NCCCN1Cc1ccc(Cl)cc1	-0.54	-1.2
CCOC(=O)C1=C(C)Nc2nnnn2C1c1ccc(Cl)cc1 (stereo unspecified)	-0.08	/
FC(F)(F)c1ccc(-c2ncc(-c3ccncc3)c(-c3ccncc3)n2)cn1	0.46	/
CCCCOc1ccc(S(N)(=O)=O)cc1	/	-0.55
CCOC(=O)c1c(-c2ccccc2)oc2ccc(O)c(CSCC(=O)Nc3ccccc3)c12	-0.68	1.4

# Other compounds follow:
mol	CapD inh	AID504770
C(=N\n1c(-c2ccco2)csc1=NC1CCCCC1)/c1ccccn1	/	0.75
Cc1ccc(CN(Cc2ccco2)C(=S)Nc2c(C)cc(C)cc2C)cc1	0.74	/
CCOC(=O)CSc1nnc2c3ccccc3c3ccccc3c2n1	0.28	-0.1
CC1=CC(C)(C)Nc2ccc(OC(=O)CN3C(=O)CCC3=O)cc21	19	-1
O=C(Nc1ccc(NC(=O)c2cccs2)cc1)c1ccc2c(c1)OCCO2	-0.22	/
CCN(CC)CCN(CC)S(=O)(=O)c1cccc2nonc12	0.15	/
O=C(NCC1CCCO1)c1ccc(Br)o1 (stereo unspecified)	-1.1	0.2
O=C(CCCN1C(=O)/C(=C/C=C/c2ccccc2)SC1=S)Nc1ccccn1	-0.43	1.1
CCOC(=O)c1c(C)[nH]c(C)c1C(=O)CSc1nnc(C(F)(F)F)n1N	/	-0.7
N#C/C(=C(\Oc1ccccc1)C(F)(F)F)c1ccccc1	-0.68	2
COc1ccccc1NC(=S)N1CCN(C2CCCCC2)CC1	-0.05	-0.25
Cn1cccc1/C=C1\CS/C(=C\c2cccn2C)C1=O	-0.27	1.1
Cc1ccc(-n2c(=S)[nH]c3c(sc(=S)n3-c3cc(C)ccc3F)c2=O)cc1	-0.9	/
CC(C)C1=NN2C(=N)CC(=O)N=C2S1	0.67	0.3
Cc1sc2nc(SCC(=O)NCCO)n(-c3ccccc3)c(=O)c2c1C	-1.1	/
CCN(c1cccc(C)c1)S(=O)(=O)c1ccc2[nH]cc(C(=O)N3CCN(c4ccc(OC)cc4)CC3)c(=O)c2c1	-0.24	/
COc1ccccc1N1CCN(S(=O)(=O)c2ccc3c(c2)C(=O)c2ccccc2C3=O)CC1	0.01	/
COc1ccc2[nH]c(C(=O)N(C)C3CCN(C)CC3)cc2c1	5.2	-0.35
CCN(CC)c1ccc(/C=C2/Sc3c(ccc4ccccc34)C2=O)cc1	-0.33	/
COCc1nnc(NC(C)=O)s1	/	-0.75
O=S(=O)(NCCCCN1CCN(c2ncccc2C(F)(F)F)CC1)c1ccc(Cl)cc1	-0.24	0.1
CC1(C)Cc2c(C#N)c(SCC(=O)c3ccccc3)nc(N3CCOCC3)c2CO1	-0.58	/
NC(N)=NN=C1CCC(c2ccccc2)CC1 (stereo unspecified)	/	-0.75
Cc1cc(-c2nnc(-c3ccc(C(F)(F)F)cn3)o2)no1	1	-0.15
Cc1c(F)cccc1NC(=O)CCCCCC1NC(=O)NC1C (stereo unspecified)	/	-0.05
CCC(C(=O)NC1CCCC1)N(C(=O)Cn1nnc(-c2ccc(C)cc2)n1)c1ccc2c(c1)OCCO2 (stereo unspecified)	/	1.8
CCCc1c(C(=O)Nc2ccc(OC)cc2)cnn1-c1ccccc1	-0.72	-0.5
CCOC(=O)C1=C(C)N=c2s/c(=C\c3ccc(OC(C)=O)cc3)c(=O)n2C1c1ccc(OC(C)=O)cc1 (stereo unspecified)	-0.27	/
Cc1ccc(N2C(=O)C3=C(C(c4ccc(Cl)cc4)=NCCN3)C2c2ccc(O)cc2)cc1 (stereo unspecified)	-0.87	/
CCN(CC)C(=O)c1sc2nc3c(cc2c1N)CN(C)CC3	-0.69	-0.95
O=C1CSC2(C(=O)Nc3ccccc32)N1c1cccc(Br)c1 (stereo unspecified)	0.24	/
O=C(O)CCC(=O)N1N=C(c2c(-c3ccccc3)c3cc(Br)ccc3[nH]c2=O)CC1c1ccccc1F (stereo unspecified)	1.2	/
COC(=O)c1sccc1-n1cccc1C(=O)C(=O)Nc1ccc(F)cc1	-1	/
Cc1nn(C)c(Sc2cccc(Cl)c2)c1C(=O)Nc1ccccc1	-0.13	/
Cc1ccsc1C(=O)OCC(=O)c1ccc2c(c1)OCCO2	/	-0.6
CN(C)c1ccc(/C=C2\C(=O)N(c3ccccc3)N=C2C(=O)Nc2ccccc2)cc1	-1.5	2.5
COc1cc(OC)nc(CN2CCN(Cc3nc(OC)cc(OC)n3)CC2)n1	-0.32	/
COC(OC)C12c3ccccc3C(c3ccccc31)C1C(=O)N(c3ccc(C)c(C)c3)C(=O)C12 (stereo unspecified)	-0.66	/
N#Cc1c(NC(=O)/C=C/c2cccs2)sc2c1CCC2	-0.47	-0.45
O=C(NNC(=O)c1cc2cc3ccccc3nc2s1)c1cccc(Cl)c1	0.33	/
O=C(Oc1ccc(C2Oc3ccccc3C3CC(c4ccc(Cl)cc4)=NN32)cc1)c1ccc(Br)cc1 (stereo unspecified)	0.58	/
CCOC(=O)c1c(-c2ccccc2)oc2c1cc(OC(=O)c1ccc(Cl)cc1Cl)c1ccccc12	-0.38	/
CCOC(=O)c1cnc2c(C(F)(F)F)cccc2c1N1CCOCC1	-0.57	-0.25
COc1cc(OC)nc(CSCCNC(=S)Nc2ccccc2)n1	-0.31	/
Cc1ccc(NC(=O)c2ccccc2S(C)(=O)=O)cc1	/	-0.05
CC(C)(C)C(N)Cn1cccn1 (stereo unspecified)	-0.3	-1.2
CC(=O)NCc1ccc(C(=O)CSc2nnc(-c3cccc(F)c3)n2N)o1	/	-0.45
NCCOc1ccccc1Cc1ccccc1	0.59	0.1
FC(F)(F)c1nc2cc(Cl)c(Cl)cc2nc1Oc1ccc(Cl)cc1	-0.25	/
O=C(NCCc1cn2c(n1)SCC2)NC1CCCCC1	/	0.75

# Screens (PubChem)
